# Source: PubChem BioAssay (National Center for Advancing Translational Sciences (NCATS))
# RE007 growth inh = qHTS Assay for Inhibitors of the HIV-1 protein Vpr | S. pombe RE007 Vpr strain, BacTiter-Glo ATP luminescence, 24 h; control for the full effect not named in the record | Potency, µM (series often up to 92.2 µM), for inactives: top-dose activity change, negative = less growth | 0.21% of 360,000 active | AID 651644, 2012; active = well fitted falling curve with a large enough effect; inconclusive = small, poorly fitted or top-dose-only effect; inactive = no such curve, though single readings can be large or run the other way;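 also: % is scaled to controls: 0 for no effect and ±100 for the full control effect; nearly all actives have a fitted effect of over 50% in size; the assay follows cell death caused by Vpr and the record does not say whether a fall means rescue or toxicity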
#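 Fission yeast RE007 carrying one integrated HIV-1 vpr copy, seeded at OD 0.01 in PMG+AL medium with 23 nL pinned compound. Grown 24 h at 30 degrees; viability read by BacTiter-Glo luminescence after 5 min.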
# Cruzain Triton = qHTS Assay for Promiscuous and Specific Inhibitors of Cruzain (with detergent); Cruzipain (Trypanosoma cruzi), P25779; purified cruzain, Z-FR-AMC fluorescence, 0.01% Triton; Potency, µM, for inactives: max response, negative = inhibition, hits mostly inhibitors; 0.43% of 200,000 active; active = well fitted curve in the direction sought with a large enough effect; inconclusive = small, poorly fitted or top-dose-only effect, or another doubt; inactive = no such curve, though single readings can be large; an effect the other way counts as inactive or inconclusive;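 also: plate controls were neutral wells for no effect and buffer without enzyme for full effect; nearly all actives have a fitted effect of over 40% in size; top concentration of the series not given in the record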
# Target sequence (P25779 123-467 limits assumed): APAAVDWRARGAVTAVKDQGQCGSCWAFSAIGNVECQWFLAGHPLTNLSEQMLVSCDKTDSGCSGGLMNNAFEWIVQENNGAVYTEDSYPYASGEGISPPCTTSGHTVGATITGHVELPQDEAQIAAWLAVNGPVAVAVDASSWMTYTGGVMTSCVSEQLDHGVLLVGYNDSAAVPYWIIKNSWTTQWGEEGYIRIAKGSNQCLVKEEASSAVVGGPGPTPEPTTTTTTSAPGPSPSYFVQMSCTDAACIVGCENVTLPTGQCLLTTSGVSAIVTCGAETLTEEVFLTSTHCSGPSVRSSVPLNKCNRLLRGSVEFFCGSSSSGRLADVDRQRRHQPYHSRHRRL
#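 Detergent-containing arm of a paired screen for aggregation-based inhibition: 0.01% Triton X-100 present. Cruzain at 1.5 nM cleaved 2 uM Z-FR-AMC at pH 5.5 with 5 mM DTT; AMC fluorescence gain over 60 s measured activity.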
# SARS PLpro yeast = qHTS of Yeast-based Assay for SARS-CoV PLP. S. cerevisiae expressing SARS-CoV PLpro, growth rescue; control for the full effect not named in the record. Potency, µM (doses to about 32.9 µM), for the others: top-dose activity, positive = growth rescue. 0.19% of 330,000 active. AID 485353, 2010; also: 0% is about no effect; nearly all actives have a fitted effect of over 55% in size; growth read by luminescence after 48 h
# 2A StopGo = High Throughput Screening for Foot and Mouth Disease Virus Antivirals. 1.2% of 410,000 active. human cells with a luciferase reporter of 2A StopGo recoding; control for the full effect not named in the record. Potency, µM (series often up to 57.9 µM), without a hit: at the highest dose signal change, negative = less light; active = well fitted falling curve with a large enough effect; inconclusive = small, poorly fitted or top-dose-only effect; inactive = no such curve, though single readings can be large or run the other way; tested in HEK293T cells; also: % is scaled to controls: 0 for no effect and ±100 for the full control effect; nearly all actives have a fitted effect of over 45% in size; luciferase light after 4 h
# MARV entry inh = qHTS for inhibitors of binding or entry into cells for Marburg Virus. Marburg virus pseudotyped entry inhibition, cell reporter; control for the full effect not named in the record; about a third of the inactives were read at about 46 µM. Potency, µM (series often up to 37.8 µM), for the others: at the top dose activity change, negative = inhibition, hits mostly inhibitors. 1.8% of 300,000 active. AID 540276, 2011; active = well fitted inhibition curve with a large enough effect; inconclusive = small, poorly fitted or top-dose-only effect, or effect the other way; inactive = flat fitted curve, though single readings scatter; tested in HEK293 cells; about a fifth of its hits are not listed in these tables; also: % is scaled to controls: 0 for no effect and ±100 for the full control effect; luciferase read-out
# Lassa entry inh = qHTS for Inhibitors of binding or entry into cells for Lassa Virus | Lassa virus pseudotype entry inhibition, cell reporter; control for the full effect not named in the record | Potency, µM (doses to about 37.9 µM), for the others: top-dose activity change, negative = inhibition, usual class: inhibitors | 1.2% of 300,000 active | AID 540256, 2011; active means well fitted inhibition curve with a large enough effect; inconclusive means small, poorly fitted or top-dose-only effect, or effect the other way; inactive means flat fitted curve, though single readings scatter; tested in HEK293 cells; also: % is scaled to controls: 0 for no effect and ±100 for the full control effect; nearly all actives have a fitted effect of over 50% in size; luciferase read-out
# NS1 function inh = qHTS Assay for Inhibitors of Influenza NS1 Protein Function | S. cerevisiae slowed by influenza A NS1, growth recovery by OD600 | Potency, µM (doses to about 46.1 µM), for the others: at the highest dose activity, positive = more growth | 0.4% of 270,000 active | AID 2326, 2010; also: actives are rising curves; nearly all actives have a fitted effect of over 50% in size
#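 A cell-based growth assay was used: compounds that relieve NS1-induced slow growth of budding yeast raise OD600. Assay medium was yeast nitrogen base with ammonium sulphate and -URA supplement, pH 6.0, with 2% galactose.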
# Cruzain noTriton = qHTS Assay for Promiscuous and Specific Inhibitors of Cruzain (without detergent); Cruzipain (Trypanosoma cruzi), P25779; purified cruzain, Z-FR-AMC fluorescence, no detergent; Potency, µM, inactives show max response, negative = inhibition, hits mostly inhibitors; 2.3% of 200,000 active; active = well fitted curve in the direction sought with a large enough effect; inconclusive = small, poorly fitted or top-dose-only effect, or another doubt; inactive = no such curve, though single readings can be large; an effect the other way counts as inactive or inconclusive;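 also: plate controls were enzyme without inhibitor for no effect and buffer without enzyme for full effect; nearly all actives have a fitted effect of over 40% in size; top concentration of the series not given in the record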
#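 Detergent-free condition (0.00005% Triton X-100) in acetate buffer pH 5.5 with DTT. 1.5 nM enzyme and compound were pre-mixed 15 min, then 2 uM Z-FR-AMC substrate added; reaction progress from fluorescence change between first and third reads (60 s).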
# * marks the source's active call; other numbers are inactive results; ? = inconclusive; nt = no result given; & = joins results of further samples; [ ] = remark or other dose. Unless noted, calls follow the shape of the dose curve; as a rule, active means well fitted rising curve with a large enough effect; inconclusive means small, poorly fitted or top-dose-only effect; inactive means no such curve, though single readings can be large or run the other way. Potency is read from the fitted curve at half-maximal effect.
SMILES,RE007 growth inh,Cruzain Triton,SARS PLpro yeast,2A StopGo,MARV entry inh,Lassa entry inh,NS1 function inh,Cruzain noTriton
CCC(C)COC(c1ccccc1)(c1ccccc1)C(Oc1nc(C)cc(C)n1)C(=O)O (centres undefined),5%,nt,-2%,-22%,?,-21%[46.1 µM],?,nt
COc1cc(-c2nc(Cc3c(F)cccc3Cl)no2)cc(OC)c1OC,4%,-8.6%,5%,2%,-4%,?,?,1%
Cc1nn(C(=O)COc2ccccc2Br)c(C)c1Sc1ccccc1,nt,-2.9%,nt,7%,22%[46.1 µM],-15%[46.1 µM],nt,3%
Cc1ccc(Sc2ccc(CN3CCCCC3)cc2[N+](=O)[O-])cc1,11%,nt,-1%,-23%,nt,nt,-2%,nt
Cc1ccc(NC(=O)CCC(=O)c2cccs2)cc1,-17%,-3.0%,11%,0%,7%,8%,-9%,-2%
CCOC(=O)c1nn(-c2ccc(Cl)cc2)c2nc(Nc3ccccc3)cc(=O)n12,7%,0.8%,?,3%,1%,-6%,1%,?
O=C(COc1ccc(Cl)cc1Cl)N1CCN(c2ccccn2)CC1,-24%,nt,-2%,-26%,3%[46.1 µM],8%[46.1 µM],-12%,nt
C=C(C)Cn1c(N2CCN(CC)CC2)nc2c1c(=O)[nH]c(=O)n2C,3%,2.8%,3%,-8%,nt,nt,-1%,1%
CC1CCC(N2CCN(S(=O)(=O)Cc3ccccc3)CC2)CC1 (centres undefined),4%,nt,1%,-3%,-10%[46.1 µM],-2%[46.1 µM],-14%,nt
COc1ccc(C(=O)CSc2nc(C(C)(C)C)nc3ccccc23)cc1,27%,nt,10%,?,nt,nt,2%,nt
COc1ccc(CNn2c(-c3cccs3)nc3ccccc3c2=O)cc1OC,7%,nt,-12%,?,?,?,nt,nt
O=C1CCCC/C1=C\Nc1ccc(C(=O)O)c(O)c1,11%,nt,0%,30%,nt,nt,8%,nt
CC(=O)N1CCc2cc(Br)cc(S(=O)(=O)N3CCN(C(=O)c4ccco4)CC3)c21,-14%,-3.7%,0%,-7%,7%&29%,-2%,-7%,?
CCC1CCCCN1C(=O)CSc1n[nH]c(N)n1 (centres undefined),0%,nt,-15%,-2%,3%[46.1 µM],0%[46.1 µM],nt,nt
Cc1nnc(SCc2nc3ccccc3[nH]2)s1,25%,-1.8%,0%,4%,30%,20%,2%,-1%
OCC[C@@H]1C[C@H](O)[C@@H](O)[C@]2(CCc3ccccc3CO2)O1,4%,nt,-3%,-20%,nt,nt,-10%,nt
O=c1cc(-c2ccc(O)cc2)oc2ccccc12,-6%,nt,-2%,68%[activator],nt,nt,-5%,nt
COc1ccc(CCNC(=O)Cn2cccc2C(=O)c2ccccc2)cc1OC,8%,-2.8%,-3%,-7%,-1%,4%,1%,-6%
CC/C(=N\NC(=O)CNC(=O)/C=C/c1ccco1)c1ccccc1,12%,-2.1%,1%,-4%,-5%,5%,?,7%
CCOC(=O)C(CCc1nnc(N)s1)C(=O)OCC,12%,2.8%,-2%,nt,-25%,22%,-11%,-9%
Cc1ccc(CSCC(=O)Nc2ccc(N3CCOCC3)cc2N2CCOCC2)cc1,-5%,nt,-2%,-17%,?,-10%,nt,nt
CC1Cn2cc(C(=O)Nc3ccccc3C(F)(F)F)c(=O)c3c(Cl)ccc(c32)O1 (centres undefined),nt,-0.3%,0%,5%,nt,12%[46.1 µM],nt,-5%
Cc1cccc(S(=O)(=O)Nc2cccc(-c3cn4ccsc4n3)c2)c1,23%,-2.2%,3%,-22%,?,?,10%,?
COc1ccc(Cl)cc1NS(=O)(=O)N1CCOCC1,-2%,nt,24%,-13%,nt,nt,7%,nt
Cc1ccc(NC(=O)CS(=O)CC(=O)N2CCN(c3ccccc3)CC2)cc1 (centres undefined),-5%,nt,1%,3%,22%[46.1 µM],?,21%,nt
CCN1CCN(S(=O)(=O)c2ccc(Cl)c(C(=O)Nc3ccccc3N3CCCCC3)c2)CC1,-11%,nt,3%,3%,11µM*,?,nt,nt
N#CCC(=O)Nc1ncn(Cc2ccccc2Cl)n1,11%,5.9%,4%,-16%,0%,22%,-9%,0%
COc1ccc(C(=O)NCCc2c[nH]c3ccc(OC)cc23)cc1,3%,nt,0%,9%,-16%,-1%,-4%,nt
NC(=O)CC(CC(=O)OCc1ccccc1)c1ccccc1 (centres undefined),2%,nt,2%,4%,4%[46.1 µM],2%[46.1 µM],17%,nt
COc1ccc(-c2cc3ccccc3n2CC(O)Cn2nc(C)cc2C)cc1 (centres undefined),-19%,-4.8%,-12%,8%,?,-22%,-41%,17%
O=C(N/N=C/c1ccco1)c1ccc2nc[nH]c2c1,5%,nt,0%,16%,2%[46.1 µM],22%,-2%,nt
COc1cccc(C2C(C#N)=C(C)NC3=C2C(=O)CC(C)(C)C3)c1 (centres undefined),-11%,-2.0%,14%,-9%,?,-22%,-10%,5%
O=C(/C=C\NCC(=O)c1ccccc1)c1ccc2ccccc2c1,-3%,-26%,-13%,10%,-15%,10%,0%,32µM*
O=C(NCC1CCCO1)/C(=C\c1ccccc1F)NC(=O)c1ccccc1 (centres undefined),-12%,nt,1%,-5%,25%[46.1 µM],5%,8%,nt
COc1cccc(NC(=O)CSc2cc(C)[nH]c(=O)n2)c1,nt,0.6%,nt,-22%,nt,5%[46.1 µM],nt,5%
O=C(NNC(=O)c1cc(Cl)nc2ccccc12)c1ccccc1F,7%,nt,-4%,-4%,7%[46.1 µM],11%,nt,nt
O=c1c2ccccc2[nH]c(=S)n1CCCN1CCOCC1,22%,0.8%,6%,-2%,5%,0%,1%,-12%
Cc1cc(C)cc(NC(=O)CSc2nccn2Cc2ccco2)c1,-14%,nt,?,4%,?,3%,-8%,nt
CCCC(=O)Nc1ccc(NC(=O)c2cccs2)cn1,8%,4.5%,1%,44%[activator],?,11%,-7%,-12%
CC(C)Sc1oc(-c2cccs2)nc1S(=O)(=O)c1ccc(Cl)cc1,nt,-13%,nt,7%,9%[46.1 µM],2%[46.1 µM],nt,-1%
Cc1ccccc1NS(=O)(=O)c1ccc2c3c(cccc13)C(=O)N2C,1%,nt,-3%,18%,-22%,-1%,-5%,nt
CCOc1ccccc1NS(=O)(=O)c1ccc2c(c1)NC(=O)CCS2,19%,nt,-3%,12%,4%[46.1 µM],-10%[46.1 µM],9%,nt
CC(C)c1ccc(/C=N/NC(=O)c2ccccn2)cc1,18%,nt,-1%,13µM*,5µM*,?,-37%,nt
CC(C)c1nc(SCC(=O)Nc2c[nH]c(=O)[nH]c2=O)c2cnn(-c3ccccc3)c2n1,-6%,nt,-2%,-17%,?,-20%[46.1 µM],nt,nt
CCN(CC(=O)Nc1c(F)cccc1F)C(=O)CN1C(=O)c2ccccc2C1=O,-15%,nt,0%,-6%,?,6%,nt,nt
COc1cccc(NC(=O)c2ccccc2SC)c1,?,2.8%,-8%,nt,5%,-9%,-10%,-4%
O=C(CSc1nnc(SCc2cccc3ccccc23)s1)N/N=C/C=C/c1ccccc1[N+](=O)[O-],19%,-2.9%,-5%,44%[activator],-2%,?,21%,10µM*
CCS(=O)(=O)N1CCC(C(=O)NCC2CCCO2)CC1 (centres undefined),10%,7.9%,1%,nt,12%,-17%,-2%,2%
CC(=O)Nc1ccc(S(=O)(=O)N(C)CC(=O)OCC(=O)NCc2ccco2)cc1,0%,nt,1%,-12%,13%,5%,nt,nt
O=C(CN1C(=O)COc2ccc(S(=O)(=O)N3CCCCCC3)cc21)N1CCN(c2ccc(F)cc2)CC1,nt,-4.2%,nt,-6%,-27%[46.1 µM],-23%[46.1 µM],nt,20%
COc1ccc(N(CC(=O)Nc2ccccc2C(=O)NCc2ccco2)S(C)(=O)=O)cc1,-10%,0.3%,3%,-16%,-6%,0%,3%,3%
COc1ccc(NC(=O)c2ccc(Oc3ncccn3)cc2)cc1,-13%,nt,0%,26%,24%[46.1 µM],-1%[46.1 µM],-4%,nt
COc1cc(NC(=O)CN2C(=O)CN(C)C(=O)c3ccccc32)cc(OC)c1OC,nt,-0.1%,nt,5%,nt,4%[46.1 µM],nt,-7%
CCCCC(CC)C1OCC(C[N+]2(C)CCOCC2)O1 (centres undefined),8%,2.8%,-9%,-15%,7%,-9%,0%,-18%
CC(C)C1CC(CCN2CCCCC2)(c2ccccc2)CCO1 (centres undefined),5%,nt,3%,-21%,?,-4%,nt,nt
Cc1cc(N(C)C)c(C#N)c(N2CCOCC2)n1,-7%,-0.4%,-6%,-17%,7%[46.1 µM],0%,?,2%
CCN1CCN(Cc2ccccc2NC(=O)Nc2ccc(C)cc2)CC1,8%,3.5%,2%,20%,?,?,2%,-13%
CCN(Cc1ccncc1)Cc1cn[nH]c1-c1cc(OC)c(OC)c(OC)c1,8%,nt,1%,-6%,-24%[46.1 µM],-5%[46.1 µM],1%,nt
Cc1cc(NC(=O)CSc2nccn2C)n(-c2ccccc2)n1,8%,nt,-1%,-2%,2%,3%,3%,nt
COc1ccc(NC(=O)CC(C)n2nc(C)cc2C)cc1Cl (centres undefined),nt,-2.1%,nt,-2%,nt,0%[46.1 µM],nt,2%
# New compounds follow:
SMILES,RE007 growth inh,Cruzain Triton,SARS PLpro yeast,2A StopGo,MARV entry inh,Lassa entry inh,NS1 function inh,Cruzain noTriton
Cc1cc(C)c(C(=O)N2CCCC(Nc3ccc(F)cc3)C2)o1 (centres undefined),7%,nt,-7%,-29%,nt,nt,-3%,nt
Nc1c(-c2ccccc2)n[nH]c1-c1ccccc1,-4%,1.1%,-6%,88%[activator],-4%,77%[14.3 µM],-48%,-2%
COc1ccc(OC)c(-c2cc(C(F)(F)F)c3c(n2)sc2c(O)cc(=O)[nH]c23)c1,-2%,-1.8%,2%,0%,?,1%,3%,9%
CN(Cc1ccccc1)c1ccc(C(CC(N)=O)NC(=O)c2ccc(Br)cc2)cc1[N+](=O)[O-] (centres undefined),-13%,nt,-2%,?,nt,nt,5µM*,nt
Cc1ccccc1Nc1nnc(SCC(=O)c2c(N)n(C3CC3)c(=O)[nH]c2=O)s1,4%,nt,2%,-28%,-2%,0%,nt,nt
COCC(=O)Nc1ccccc1-c1ccccc1,-13%,nt,0%,-2%,?,-12%[46.1 µM],nt,nt

# An unsorted share of the library; 4.5% or so of the library scored in one or more.
